Screening results from PubChem BioAssay.
Tgondii IFNg: inhibitors of Toxoplasma gondii growth with IFN-gamma | Toxoplasma gondii growth in IFN-gamma-treated host cells; active compounds read low; reference of the scale not given here | activity change, negative = inhibition, %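 (about 20 µM by stock and volumes)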 | 69,000 tested, 3.8% active | AID 1259416;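 active = below -70%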;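 note: host cells are HeLa cells infected with Toxoplasma gondii; parasite growth read as luciferase light; one replicate is shown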
An asterisk follows results filed as active; & = joins results of further samples. Not all compounds are listed; the hit share may differ from the screen's.

SMILES	Tgondii IFNg
CN(C)c1ccc(/C=C/C(=O)C2C(=O)N(C)C3(C)CC2c2ccccc2O3)cc1 (centres undefined)	-45
COCCN1CCCC2(CCNC2)C1=O (centres undefined)	-1
Cc1ccc(CN2CC3CC2CN(Cc2c(C)noc2C)C3)o1 (centres undefined)	-4
CN1C2CCC1CC(OC(=O)CNC1CCCCC1)C2 (centres undefined)	-5
COc1cccc(C2c3c(nc(C)[nH]c3=O)Oc3c2c(=O)oc2ccccc32)c1 (centres undefined)	22
O=C1NC(=O)C2(Cc3ccccc3N3CCCC32)C(=O)N1c1ccc(Cl)cc1 (centres undefined)	19
CN1C2C[C@H](OC(=O)[C@H](CO)c3ccccc3)C[C@@H]1[C@@H](O)C2	10
COCC(=O)N1C[C@@H]2CCN(Cc3c(C)noc3C)C[C@H]2C1	-6
COc1ccc(NC(=O)c2cc3cccnc3n(Cc3ccc(Cl)cc3)c2=O)c(OC)c1	113
O=C(Cc1ccc(F)cc1)N1CCN(Cc2ccccc2)CC(Cc2ccccn2)C1 (centres undefined)	5
N#C[C@H](O[C@@H]1O[C@H](CO[C@@H]2O[C@H](CO)[C@@H](O)[C@H](O)[C@H]2O)[C@@H](O)[C@H](O)[C@H]1O)c1ccccc1	24
COc1ccc2c(CN3CCC(CN)C3)cn(C)c2c1 (centres undefined)	17
O=C(O)C(O)(c1ccccc1)C1CCCCC1 (centres undefined)	-31
COc1ccc2c(c1)[C@]13CCCC[C@H]1[C@H](C2)N(C)CC3	0
Cc1noc(C)c1CN1C[C@@H]2COC[C@@]2(CNS(C)(=O)=O)C1	-1
c1cncc(CN2CCC3(CC2)COCCN3CC2CC2)c1	114
OCCN1CCOC2C(Cn3ccnc3)CCC21 (centres undefined)	2
COc1cc(-n2c(=S)[nH]c3ccccc3c2=O)c(Cl)cc1Cl	7
Cc1c(Cl)cccc1NC(=O)c1cc2cccnc2n(Cc2ccc(F)cc2)c1=O	146
COc1ccc(Cl)cc1NC(=O)c1cc2cccnc2n(Cc2ccc(F)cc2)c1=O	42
O=C(Nc1cccc(C(F)(F)F)c1)c1cc2cccnc2n(Cc2ccccc2)c1=O	-5
Cc1cc(N2C[C@H](c3cc(F)cc(F)c3)[C@@H]3[C@H]2C2CCN3CC2)nc(N)n1	-16
C=CCNC(=O)c1cc2cccnc2n(Cc2ccc(F)cc2)c1=O	-18
Cc1nnc(N2CCCC3(CNCCO3)C2)o1 (centres undefined)	71
O=C(Nc1cccc(Cl)c1)c1c(O)c2cccnc2n(Cc2ccccc2)c1=O	146
COCCN1CCCC12CCCN(C(=O)c1ccno1)C2 (centres undefined)	26
CN1CCN(S(=O)(=O)c2cn(C)cn2)Cc2cccnc21	-16
CSc1ccccc1C(=O)C1CCCN(Cc2ccc(C)s2)C1 (centres undefined)	19
Cn1c(CCCC(=O)O)nc2cc(N(CCCl)CCCl)ccc21	5&11
Cc1ccc2c(c1)C1CN(C)CCC1N2C(=O)Nc1cccc(Cl)c1 (centres undefined)	-40
CC(C)NC(=O)CNC(C)Cn1cncn1 (centres undefined)	7
CN(C)CCNC(=O)c1cc2cccnc2n(Cc2ccccc2)c1=O	-11
Cn1cccc1C(=O)NC[C@H]1OC[C@H]2CCNC[C@@H]21	-7
c1csc(COCC2CCC3NCCOC23)n1 (centres undefined)	0
COC(=O)[C@@H]1[C@@H](CO)[C@@H]2Cn3c(cccc3=O)[C@@H]2N1CC1CC1	-43
COc1ccc(NC(=O)c2cc3cccnc3n(Cc3ccc(Cl)cc3)c2=O)cc1OC	58
C=CCN1CCO[C@@H]2[C@@H](Oc3ccccn3)CC[C@H]21	1
O=C(Cc1ccncc1)N1CCCCN2[C@H](CO)[C@H](c3ccc(C#Cc4ccccc4F)cc3)[C@@H]2C1	-23
Cc1ccc(-c2nccn2CCc2cnc[nH]2)c(C)c1F	-3
C=CCNC(=O)c1cc2cccnc2n(Cc2ccccc2)c1=O	21

7 entries from above, as a markdown table.
| compound | Tgondii IFNg |
| --- | --- |
| O=C(Nc1cccc(C(F)(F)F)c1)c1cc2cccnc2n(Cc2ccccc2)c1=O | -5 |
| Cc1cc(N2C[C@H](c3cc(F)cc(F)c3)[C@@H]3[C@H]2C2CCN3CC2)nc(N)n1 | -16 |
| C=CCNC(=O)c1cc2cccnc2n(Cc2ccc(F)cc2)c1=O | -18 |
| Cc1nnc(N2CCCC3(CNCCO3)C2)o1 (centres undefined) | 71 |
| O=C(Nc1cccc(Cl)c1)c1c(O)c2cccnc2n(Cc2ccccc2)c1=O | 146 |
| COCCN1CCCC12CCCN(C(=O)c1ccno1)C2 (centres undefined) | 26 |
| CN1CCN(S(=O)(=O)c2cn(C)cn2)Cc2cccnc21 | -16 |

(list continues)
SMILES	Tgondii IFNg
O=C1CNC[C@H]2[C@@H](c3ccc(Br)cc3)[C@H](CO)N12	-45
CCN1CCc2c(CNC(=O)c3nccn3C)cncc2C1	-54
O=C(NCc1ccccn1)[C@]12CNC[C@H]1COC2	3
Cc1ccccc1NC(=O)c1cc2cccnc2n(Cc2ccc(Cl)cc2)c1=O	115
COc1ccccc1CC(C)N(C)C(=O)CN1CCCN(C)CC1 (centres undefined)	5
COc1ncccc1CN1CCOCC2(CCC(CN(C)C)O2)C1 (centres undefined)	79
Cn1ccnc1CN1CCCC2(CCNC2=O)C1 (centres undefined)	-61
c1cncc(CN2CCO[C@@H]3CN(Cc4ccco4)CC[C@@H]3C2)c1	87
CCC/C=C/c1cccc(N2CCNCC2)n1	1
CC(=O)N1C2CCC1[C@@H](N(C)Cc1ccccc1)C2 (some centres undefined)	-22
COc1ccc(CCNC2CCCCC2)cc1OC	-8
COc1ccc(C2=NCC(=O)N(Cc3nc(-c4ccccc4)oc3C)c3sccc32)cc1	-95*
OCCN1CC2(CCN(c3nccs3)C2)C1	89
Cc1ccnc(CC(C)N(C)Cc2ccc(CN(C)S(C)(=O)=O)o2)c1 (centres undefined)	-28
CCN1CC2CCC1C2Oc1cccnc1 (centres undefined)	-30
CC(=O)O[C@H]1C[C@H](O[C@H]2[C@@H](O)C[C@H](O[C@H]3[C@@H](O)C[C@H](O[C@H]4CC[C@@]5(C)C(CCC6C5C[C@@H](O)[C@]5(C)[C@@H](C7=CC(=O)OC7)CC[C@]65O)C4)O[C@@H]3C)O[C@@H]2C)O[C@H](C)[C@H]1O[C@@H]1O[C@H](CO)[C@@H](O)[C@H](O)[C@H]1O (some centres undefined)	-73*
Cc1noc(C)c1CN1CCN(C)c2ncccc2C1	13
CN1Cc2ccccc2[C@@H]2c3cccc4[nH]cc(c34)C[C@H]21	-78*
CC(Cc1ccccc1)NCCC(c1ccccc1)c1ccccc1 (centres undefined)	-4
OC(Cc1ccncc1)C(Cl)(Cl)Cl (centres undefined)	-56&11
O=C(NCCc1c[nH]c2ccccc12)c1cc2cccnc2n(Cc2ccccc2F)c1=O	112
Cc1cccc(NC(=O)c2c(O)c3cccnc3n(Cc3ccccc3)c2=O)c1C	15
C=CCC1(C(C)CCC)C(=O)NC(=S)NC1=O (centres undefined)	0

Structural class: the entries above containing sulfur (9)
SMILES	Tgondii IFNg
Cc1noc(C)c1CN1C[C@@H]2COC[C@@]2(CNS(C)(=O)=O)C1	-1
COc1cc(-n2c(=S)[nH]c3ccccc3c2=O)c(Cl)cc1Cl	7
CN1CCN(S(=O)(=O)c2cn(C)cn2)Cc2cccnc21	-16
CSc1ccccc1C(=O)C1CCCN(Cc2ccc(C)s2)C1 (centres undefined)	19
c1csc(COCC2CCC3NCCOC23)n1 (centres undefined)	0
COc1ccc(C2=NCC(=O)N(Cc3nc(-c4ccccc4)oc3C)c3sccc32)cc1	-95*
OCCN1CC2(CCN(c3nccs3)C2)C1	89
Cc1ccnc(CC(C)N(C)Cc2ccc(CN(C)S(C)(=O)=O)o2)c1 (centres undefined)	-28
C=CCC1(C(C)CCC)C(=O)NC(=S)NC1=O (centres undefined)	0

Sorted by SMILES length (descending): six of the compounds above.
SMILES	Tgondii IFNg
CC(=O)O[C@H]1C[C@H](O[C@H]2[C@@H](O)C[C@H](O[C@H]3[C@@H](O)C[C@H](O[C@H]4CC[C@@]5(C)C(CCC6C5C[C@@H](O)[C@]5(C)[C@@H](C7=CC(=O)OC7)CC[C@]65O)C4)O[C@@H]3C)O[C@@H]2C)O[C@H](C)[C@H]1O[C@@H]1O[C@H](CO)[C@@H](O)[C@H](O)[C@H]1O (some centres undefined)	-73*
O=C1CNC[C@H]2[C@@H](c3ccc(Br)cc3)[C@H](CO)N12	-45
CC(=O)N1C2CCC1[C@@H](N(C)Cc1ccccc1)C2 (some centres undefined)	-22
CCN1CCc2c(CNC(=O)c3nccn3C)cncc2C1	-54
Cn1ccnc1CN1CCCC2(CCNC2=O)C1 (centres undefined)	-61
CCC/C=C/c1cccc(N2CCNCC2)n1	1
